Screening data from PubChem BioAssay.
LYP phosphatase – PTPN22 lymphoid phosphatase activity blockers – biochemical, fluorescence intensity, uHTS (AID 1779) | actives 0.054% (n = 290,000) | inhibition, % at 11.5 µM; hits with a dose series show IC50 in µM | recombinant LYP phosphatase, fluorescence intensity; higher % means a stronger effect; in the data active means inhibition above about 50%;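 further: plate controls were vehicle with enzyme for no effect and no enzyme for full effect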
AID2073 – inhibitors of Mint1-CaV2.2 protein interaction, biochemical, HTRF (AID 2073) | HTRF protein-protein interaction, Mint1-CaV2.2; higher % means a stronger effect | one-dose inhibition, % at 20 µM; IC50 in µM for titrated hits | actives 0.19% (n = 290,000); in the data active means inhibition mostly above about 51%, no sharp cut-off; inconclusive means no clear call, values can overlap the other calls; inactive means mostly below about 53%; further: some results filed as inactive read as strong as hits
HIV fusion peptide – cell-free HIV fusion peptide-binding blockers – biochemical, uHTS, fluorescence dequenching, primary screen (AID 1986); cell-free peptide binding, fluorescence dequenching, 30 min; higher % means a stronger effect; one-dose inhibition, % at 20 µM; IC50 in µM for titrated hits; actives 0.3% (n = 290,000); in the data active means inhibition mostly above about 52%, no sharp cut-off; inactive means mostly below about 76%; further: some results filed as inactive read as strong as hits
XIAP displacement – small molecules displacing peptide from XIAP – biochemical, IAP family, fluorescence polarization (AID 1018); XIAP BIR domain, fluorescence polarization peptide displacement; higher % means a stronger effect; displacement, % at 20 µM, or IC50 in µM where a hit was titrated; actives 0.007% (n = 200,000); in the data active means displacement above about 50%; further: a part of the inactive calls stands beside numbers as strong as those of hits
Lipid droplet – hepatic lipid droplet formation modulation | AML12 mouse hepatocytes, oleate lipid droplets, BODIPY imaging | inhibition, % at 6.5 µM | actives 0.4% (n = 240,000) | AID 1656;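 active means lipid droplet intensity inhibited by at least 50%, with more than 500 cells counted; inconclusive means wells with under 300 cells, treated as cytotoxic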
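Material – AML12 mouse liver cells · Also added – oleate loading, 100 µM · Compound dosing – 6.5 µM single-point dosing · Times – overnight treatment with compound plus oleate · Measured by – fluorescence imaging, 20x objective, two fields per well · Read-out – percent inhibition of filter-corrected integrated lipid droplet intensity per well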
Myeloid diff MLP – compounds promoting myeloid differentiation. actives 1% (n = 360,000). calls only at 10 µM. ER-HoxA9 myeloid progenitors, lysozyme-GFP differentiation, flow cytometry;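 active means normalized GFP-positive differentiation at or above the plate's own cutoff, the solvent-only control mean plus 3 SD; inconclusive means no clear call, values can overlap the other calls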;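 further: cells exposed to compound for four days before flow analysis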
SIAH1 antagonists – blockers of Siah-1 interaction with plectin peptide – biochemical, fluorescence polarization, rhodamine-plectin, uHTS, primary screen (AID 1817); one-dose displacement, % at 20 µM; IC50 in µM for titrated hits; actives 0.02% (n = 290,000); Siah-1 / rhodamine-plectin peptide fluorescence polarization; higher % means a stronger effect;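 active means displacement of at least 50% at 20 µM, with a fluorescence ratio check between 0.3 and a set limit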;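 further: plate controls were Siah plus tracer with DMSO for no effect and tracer alone without Siah for full effect; strong numbers were not always called active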
NS5 inhibitors – flavivirus cap methylation enzyme inhibition – biochemical, confirmation dose response, primary screen (AID 588689); Dengue-2 NS5 methyltransferase capping enzyme assay, biochemical; higher % means a stronger effect; inhibition, % at 25 µM, or IC50 in µM where a hit was titrated; actives 0.3% (n = 340,000); in the data active means a potency from the dose series; inconclusive means inhibition above about 29% without an active follow-up result
Lipid droplet cells 6.5 µM – further read-out of Lipid droplet, marked with its call; cell count; measured here: cell count, cytotoxicity flag;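 cells counted across two imaged fields per well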
NS5 inhibitors pilot replicate – also measured in NS5 inhibitors; calls as there; inhibition, %; measured here: pilot screen replicate inhibition
Myeloid diff MLP GFP+ MAC1+ % – recorded beside Myeloid diff MLP, whose call it bears; GFP+ MAC1+ double positive, %; measured here: differentiation confirmed by MAC1 staining
The depositor's hits bear a star; i = inactive; ? = inconclusive; . = not tested or not shown; + = active, no number.

SMILES	LYP phosphatase	AID2073	HIV fusion peptide	XIAP displacement	Lipid droplet	Lipid droplet cells 6.5 µM	Myeloid diff MLP	Myeloid diff MLP GFP+ MAC1+ %	SIAH1 antagonists	NS5 inhibitors	others
O=C(Nc1ccc(Oc2cccnc2)cc1)C1CCN(Cc2cc(Cl)ccc2O)CC1	-11.7%	3.8%	-2.8%	.	-9.5	790	?	.	-3.5%	-12.9%
Cc1ccc(C(=O)c2cnc3cc4c(cc3c2S(=O)(=O)c2ccccc2)OCCO4)cc1	4.8%	?	-1.2%	-5.1%	-1.1	676	i	0.8	-5.7%	-6.5%
CCCCN1/C(=C/c2ccc3ccccc3[n+]2CC)Sc2ccccc21	-5.7%	-1.6%	6.6%	-5.7%	-93.4	474	+	54.3*	-3.4%	.
COc1ccc2cc(C(N)=O)c(=Nc3ccc(C)cc3)oc2c1	-3.6%	5.6%	-1.0%	3.3%	6.5	730	i	0.0	-2.7%	3.8%
Cn1nccc1C(=O)NC1CCCc2c1cnn2-c1ccc(C(C)(C)C)cc1 (centres undefined)	-0.2%	3.3%	-0.4%	.	-54.7	642	i	2.4	5.5%	-0.6%
CS(=O)(=O)c1ccc(C(=O)OCc2nnc(-c3ccccc3)o2)cc1[N+](=O)[O-]	2.9%	-11.6%	0.3%	-7.9%	-10.6	691	i	0.9	-2.4%	-60.6%
Cc1cc2c(NCc3ccccc3)ncnc2s1	-9.3%	11.6%	-1.6%	.	-1.5	801	i	0.2	-7.8%	-3.5%
COc1cccc(C(=O)Oc2c(Br)cc(Br)cc2/C=N/NC(=O)c2cc(C)[nH]n2)c1	1.2%	-5.9%	0.9%	-4.7%	14.5	672	?	.	-3.4%	-11.9%
O=C(Nc1nnc(SCc2c(Cl)cccc2Cl)s1)c1cccc([N+](=O)[O-])c1	13.1%	6.4%	-3.0%	.	11.0	666	i	0.7	-0.7%	-4.6%
O=C(c1[nH]nc2c1CCc1ccccc1-2)N1CCN(Cc2ccc3c(c2)OCO3)CC1	-7.6%	1.4%	-1.2%	.	-39.6	777	i	0.0	-4.4%	-10.9%
O=C(Nc1nc2ccccc2n1CCOc1ccc(Cl)cc1)c1ccco1	-2.3%	13.7%	-1.5%	-5.3%	.	.	i	4.6	-4.6%	-0.7%
O=C1CSc2ccc(C(=O)Nc3cccc(S(=O)(=O)Nc4ccc(Br)cc4)c3)cc2N1	9.6%	28.7%	2.6%	-6.2%	.	.	i	0.5	5.6%	-0.9%
O=C(N/N=C\c1c(O)ccc2ccccc12)c1ccc(O)cc1	-0.5%	4.9%	2.9%	.	-14.0	754	?	.	-13.4%	.
CCCCn1c(SCC(=O)Nc2nnc(C(C)C)s2)nc2c1c(=O)n(C)c(=O)n2C	0.1%	-6.4%	1.4%	-10.1%	7.3	732	i	1.4	2.2%	4.8%
COc1cc(C)c(Br)cc1S(=O)(=O)NCc1ccncc1	-5.3%	-6.3%	-0.4%	-4.6%	2.7	650	i	0.3	3.0%	-1.5%
Cc1cc(C(=O)N/N=C/c2ccc([N+](=O)[O-])s2)c2ccccc2n1	0.3%	-9.4%	9.2%	.	0.7	821	+	3.2*	32.9%	0.8%
CCCc1cc(NC(=O)CCl)n(-c2ccccc2)n1	-3.0%	-10.8%	-0.9%	-14.8%	-29.6	695	i	0.5	4.9%	-0.9%
O=S(=O)(Nc1nc2ccccc2nc1Nc1ccc(N2CCOCC2)cc1)c1cc(Cl)ccc1Cl	1.4%	20.5%	.	0.3%	-18.2	620	i	0.7	i	-20.9%
N#CC1=C(N)N2C(=C(C#N)C1c1cccc(Br)c1)Nc1ccccc12 (centres undefined)	-1.9%	38.0%	4.3%	-8.0%	-32.2	528	i	0.2	1.9%	-8.1%
Cc1cccc(CS(=O)(=O)c2ncc(Cl)c(C(=O)Nc3c(C)cccc3C)n2)c1	-13.6%	-2.1%	-0.9%	.	-36.2	752	i	3.3	-0.8%	-57.4%

In the list so far, 2 contain an NH in an aromatic ring:
SMILES	LYP phosphatase	AID2073	HIV fusion peptide	XIAP displacement	Lipid droplet	Lipid droplet cells 6.5 µM	Myeloid diff MLP	Myeloid diff MLP GFP+ MAC1+ %	SIAH1 antagonists	NS5 inhibitors	others
COc1cccc(C(=O)Oc2c(Br)cc(Br)cc2/C=N/NC(=O)c2cc(C)[nH]n2)c1	1.2%	-5.9%	0.9%	-4.7%	14.5	672	?	.	-3.4%	-11.9%
O=C(c1[nH]nc2c1CCc1ccccc1-2)N1CCN(Cc2ccc3c(c2)OCO3)CC1	-7.6%	1.4%	-1.2%	.	-39.6	777	i	0.0	-4.4%	-10.9%

Carrying on.
SMILES	LYP phosphatase	AID2073	HIV fusion peptide	XIAP displacement	Lipid droplet	Lipid droplet cells 6.5 µM	Myeloid diff MLP	Myeloid diff MLP GFP+ MAC1+ %	SIAH1 antagonists	NS5 inhibitors	others
CCN(CC)c1ccc(/C=C/c2cccc[n+]2C)c(OC)c1	-3.6%	2.1%	77.3%*	.	-144.3	644	?	.	-0.8%	6.9%
COc1ccc2ncn(-c3ccccc3)c2c1	-8.4%	-5.2%	-4.5%	-6.1%	.	.	?	.	-4.4%	3.2%
COc1ccc(-c2csc3ncnc(NCCO)c23)cc1	-12.4%	9.9%	-0.3%	.	-13.6	829	i	0.4	7.7%	-1.1%
Cc1cc(N2CCOCC2)c2c(N)c(Br)cc(C)c2n1	1.9%	-9.1%	-0.9%	-5.0%	-1.7	751	i	0.5	-6.1%	19.6%
O=C(CCl)N1c2ccccc2OCC1c1ccccc1 (centres undefined)	-10.8%	-4.7%	-2.2%	-6.8%	-0.6	418	i	0.3	-7.2%	-8.0%
Cc1cc(NC(=O)c2cccs2)n(-c2nc3ccccc3[nH]2)n1	-6.3%	25.8%	-2.0%	-3.7%	35.1	717	i	0.7	18.2%	4.6%
N#Cc1c(NC(=O)CSc2ncn[nH]2)sc2c1CCCCC2	-7.5%	1.0%	-1.0%	0.8%	-14.3	692	i	6.2	6.3%	0.0%
CCOc1ccc(/C=C/C(O)=C2/C(=O)N(C)C3(C)CC2c2ccccc2O3)cc1OC (centres undefined)	1.2%	21.9%	0.7%	-5.3%	4.3	733	i	1.4	-3.3%	-15.9%
Cc1ccccc1N=Nc1ccc(O)c2ncccc12	-5.9%	-4.4%	-1.3%	-2.2%	8.0	663	?	.	0.2%	-2.2%
CC(/C=C/c1ccccc1)=N/NC(=O)c1cc([N+](=O)[O-])cc([N+](=O)[O-])c1	-4.2%	12.6%	-1.9%	-1.3%	-18.5	604	i	0.6	-4.6%	-5.0%
CC(C)(C)OC(=O)NCCc1nnc(S(=O)(=O)Cc2ccc(Cl)cc2Cl)o1	-5.1%	10.7%	-0.4%	-4.8%	.	.	i	1.1	-3.6%	-42.3%
Cc1ccc(NC(=S)N/N=C/c2ccc([N+](=O)[O-])s2)cc1	-0.9%	-23.6%	2.9%	-1.5%	13.7	732	i	1.6	4.8%	-5.7%
O=[N+]([O-])c1cccc(NC(=S)Nc2nc(-c3ccc(Cl)cc3Cl)cs2)c1	-9.2%	0.4%	-1.3%	.	-36.5	602	.	.	-2.2%	.
CCOc1ccc(Nc2nc(N)nc(CCl)n2)cc1	-6.8%	-6.6%	-0.3%	.	2.5	629	i	0.9	3.3%	-18.6%
COc1ccc(NC(=O)c2ccc3ccccc3c2)cc1	-7.4%	9.9%	1.0%	.	2.5	794	i	1.0	0.1%	5.3%
Cc1cc(C(=O)CSc2nc3ccccc3c(=O)n2C)c(C)n1CC1CCCO1 (centres undefined)	-0.3%	-2.6%	-1.1%	-0.7%	-48.4	622	.	.	-1.3%	.
O=C(CCl)N(Cc1cc(=O)[nH]c2ccccc12)c1ccccc1	-7.7%	8.1%	1.3%	.	-14.0	845	i	0.1	3.9%	-18.3%
Cc1ccc(C(=O)OCn2ncc(Cl)c(Cl)c2=O)cc1	-6.9%	-13.4%	-2.0%	-7.2%	.	.	.	.	-3.3%	-47.0%	NS5 inhibitors pilot replicate=-5.0
O=C(N/N=C1/C(=O)c2cccc3cccc1c23)c1ccc(Cl)cc1	-0.4%	15.1%	-4.4%	16.7%	-1.6	773	i	1.7	-3.8%	4.0%
CCOC(=O)c1c(-c2ccccc2)oc2cc(Br)c(O)c(C=O)c12	-1.4%	-16.1%	27.8%	.	24.9	819	i	0.5	-4.2%	4.6%
Cc1ccc(-n2[nH]c(C)c(/C=N/Nc3ccc([N+](=O)[O-])cc3[N+](=O)[O-])c2=O)cc1C	4.6%	20.9%	35.2%	-2.4%	8.7	655	i	0.6	-4.1%	12.5%
COc1ccc(CNc2ncnc3sccc23)cc1OC	-4.0%	6.2%	-0.2%	.	-9.4	696	i	0.9	1.4%	-6.2%
O=c1c2ccccc2nc(/C=C/c2ccc([N+](=O)[O-])o2)n1CCCO	-0.2%	8.2%	35.1%	-7.3%	.	.	.	.	-1.2%	-6.9%
Cc1ccc(N(C(=O)CCl)C(C(=O)NC2CCCCC2)c2cccnc2)cc1C (centres undefined)	-4.9%	-0.4%	0.4%	-2.0%	?	.	.	.	-2.4%	.
NC(=S)N/N=C\c1c(OCc2ccccc2Cl)ccc2ccccc12	1.3%	?	-1.2%	-4.4%	-15.2	685	i	0.2	-1.9%	0.0%
CC1=C(C(=O)NC2CCCc3c2cnn3-c2ccc(F)cc2F)OCCO1 (centres undefined)	-13.5%	2.3%	3.9%	.	48.6	741	i	6.6	25.5%	4.5%
Cc1cc(N)n2nc(-c3ccc(C(C)(C)C)cc3)cc2n1	1.8%	-0.2%	5.1%	-4.6%	19.8	815	i	1.1	-1.7%	-0.8%
CN(c1ccccc1)S(=O)(=O)c1cccc(NC(=O)c2cc(=O)c3ccccc3o2)c1	8.0%	28.8%	0.3%	-1.1%	-3.3	728	i	0.6	3.7%	2.5%
CC(=O)NC(c1ccc(C)cc1)c1cc(Cl)c2cccnc2c1O (centres undefined)	-9.0%	6.1%	0.3%	.	-3.9	765	.	.	-1.0%	11.6%
O=C(NC(=S)Nc1ccccn1)c1ccc(-c2ccccc2)cc1	-3.2%	8.5%	-0.2%	.	94.0*	884*	i	1.3	-1.9%	1.0%
CC(=O)c1cn(CCOc2cc(C)ccc2C)c2ccccc12	-10.6%	8.2%	1.1%	.	-40.0	623	?	.	10.8%	-8.6%	NS5 inhibitors pilot replicate=-3.4
O=C(C(Cl)Cl)N1c2ccccc2OCC1c1ccccc1 (centres undefined)	7.4%	5.5%	-1.0%	-5.8%	-91.7	314	i	0.7	-5.5%	-8.2%	NS5 inhibitors pilot replicate=2.6
COc1ccccc1-c1nnc(Nc2nc3c(OC)cccc3s2)o1	-6.7%	25.8%	1.0%	-5.4%	?	.	?	.	14.5%	0.0%

Some of the compounds tested, so the mix of outcomes need not match the whole.
